Six1-Eya2 blk – inhibitors of human Six1/Eya2 interaction. Q15475+O00167. AlphaScreen GST-Six1/His-Eya2 binding, biochemical; hits give low values; control for the full effect not named in the record. activity change, % (no concentration beside the values). 360,000 compounds, 0.56% hits. AID 651725; in the data active = activity change below about -65%; inconclusive = about -30% to -65%; inactive = above about -30%; also: % is scaled to controls: 0 for no effect and ±100 for the full control effect
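Homogeneous AlphaScreen proximity assay pairing GST-Six1 with His-tagged Eya2 (added as 5X mix: 250 nM and 500 nM) in 50 mM Tris pH 8.0, 300 mM NaCl, 1 mM TCEP. Glutathione donor and nickel acceptor beads; 1 h, 37 °C, dark.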
PINK1 expr mod – changes PINK1 expression; Potency, µM (top dose mostly 76.6 µM), for inactives: top-dose activation (PINK1 increase), hits mostly activators; AID 624263; PINK1 immunofluorescence, high-content cytometry, 24 h; 410,000 compounds, 0.2% hits; active = well fitted activation curve with a large enough effect; inconclusive = small, poorly fitted or top-dose-only effect; inactive = flat fitted curve, though single readings scatter; cell line not stated here;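 also: potency is read from the fitted curve at half-maximal effect; % of control where 0% means no effect; nearly all actives have a fitted effect of over 65% in size; a mitochondrial uncoupler was the plate control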
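A stable cell line was treated with compounds at 5 concentrations for 24 hours, with CCCP as control. PINK1 levels and mitochondrial localization were measured by immunofluorescence with mitochondrial, cell and nuclear markers after fixation, read by laser-scanning cytometry.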
TRPML1 ag – activates the human TRPML1 channel; Q9GZU1; TRPML1-expressing cells, Ca2+ dye fluorescence, FDSS; host cell line not named in the record; reference of the full effect not given here; 410,000 compounds, 0.12% hits; activation, % (test concentration not listed); AID 624414; in the data active = activation above about 50%; inconclusive = about 30% to 50%; inactive = below about 30%; also: 0% is about no effect; the text of the record puts the active cut at 80%
Target sequence (Q9GZU1 whole entry, looked up): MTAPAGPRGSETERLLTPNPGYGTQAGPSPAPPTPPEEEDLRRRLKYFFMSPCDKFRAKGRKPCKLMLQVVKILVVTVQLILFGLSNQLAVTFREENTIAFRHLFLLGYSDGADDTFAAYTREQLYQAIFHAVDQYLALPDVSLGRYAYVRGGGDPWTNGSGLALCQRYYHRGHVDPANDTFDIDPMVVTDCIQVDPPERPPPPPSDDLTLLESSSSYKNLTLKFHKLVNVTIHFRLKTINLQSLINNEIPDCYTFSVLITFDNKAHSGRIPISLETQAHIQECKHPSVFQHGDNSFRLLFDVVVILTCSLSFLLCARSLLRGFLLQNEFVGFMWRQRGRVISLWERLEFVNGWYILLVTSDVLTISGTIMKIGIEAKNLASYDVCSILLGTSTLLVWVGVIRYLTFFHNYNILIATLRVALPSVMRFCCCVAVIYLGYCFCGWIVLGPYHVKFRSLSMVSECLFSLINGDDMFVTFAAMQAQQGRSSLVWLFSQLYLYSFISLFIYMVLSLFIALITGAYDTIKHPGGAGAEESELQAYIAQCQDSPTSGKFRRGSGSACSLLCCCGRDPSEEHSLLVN
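Cells: TRPML1-DL, 1X Tet inducer, ~16 h at 37 degrees C/5% CO2. Dye: ABD Ca8 no-wash + quencher, 45-90 min RT. Read: 10 s baseline, compound add, 110 s agonist phase; 54-4 EC80 (4uM final), 110 s antagonist phase.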
CtBP-E1A blk – inhibitors of CtBP/E1A interaction; AlphaScreen GST-E1A/His-CtBP binding, 1536-well; hits give low values; control for the full effect not named in the record; AID 651724; 340,000 compounds, 0.49% hits; activity change, % (concentration not given with the values); in the data active means activity change below about -65%; inconclusive means about -30% to -65%; inactive means above about -30%; also: % is scaled to controls: 0 for no effect and ±100 for the full control effect
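Steps: dispense buffer (Tris pH 8.0, NaCl 300 mM, TCEP 1 mM, BSA, Tween 20); add 5X protein mix (GST-E1A, His-CtBP, 125 nM each); pin 23 nL compound; 2 h at 37 °C, dark; add 5X beads (50 ug/mL); 1 h; read.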
TRPML1 inh – human mucolipin-1 channel inhibition | Q9GZU1 | TRPML1-inducible cells, Ca2+ dye fluorescence, FDSS; hits give low values; inhibition of EC80 agonist-evoked calcium signal | activity change, negative = inhibition, % (test concentration not listed) | 390,000 compounds, 0.02% hits | AID 624415; in the data active means activity change below about -50%; inconclusive means about -30% to -50%; inactive means above about -30%;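 also: stimulus is agonist 54-4 at its EC80 concentration; % is scaled to controls: 0 for no effect and ±100 for the full control effect; compound concentration not given in the record; the text of the record puts the active cut at -80%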
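Calcium fluorescence in TRPML1-DL cells induced overnight with Tet: a 110 s read after compound pin addition, then a 110 s antagonist read after challenge with 54-4 at 4 uM final (EC80).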
D2 ag – agonists of human D2 dopamine receptor (beta-arrestin). 360,000 compounds, 0.084% hits. P14416. activation, % (no concentration beside the values). AID 624465. DiscoveRx PathHunter D2 beta-arrestin, luminescence, 90 min; 100% = 57 uM dopamine signal; in the data active = activation above about 40%; inconclusive = about 15% to 40%; inactive = below about 15%; also: compound concentration not given in the record; the text of the record calls up to 30% inactive
Target sequence (P14416 whole entry, looked up): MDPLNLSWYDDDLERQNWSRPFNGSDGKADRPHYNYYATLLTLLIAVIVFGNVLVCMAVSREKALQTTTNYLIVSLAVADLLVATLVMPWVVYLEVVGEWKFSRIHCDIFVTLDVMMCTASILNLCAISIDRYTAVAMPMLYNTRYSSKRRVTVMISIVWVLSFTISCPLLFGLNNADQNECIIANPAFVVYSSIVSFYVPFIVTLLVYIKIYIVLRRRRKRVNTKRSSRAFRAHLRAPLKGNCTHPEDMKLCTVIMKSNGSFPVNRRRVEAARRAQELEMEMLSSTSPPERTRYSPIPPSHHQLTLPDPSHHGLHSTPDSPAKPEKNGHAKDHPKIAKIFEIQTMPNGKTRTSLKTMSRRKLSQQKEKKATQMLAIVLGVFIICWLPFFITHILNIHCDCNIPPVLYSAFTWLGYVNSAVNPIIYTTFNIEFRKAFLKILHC
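DiscoveRx PathHunter D2 beta-arrestin cells (2,100/well) attached overnight, then compound-stimulated 90 min at 37 C in HBSS/10 mM HEPES/0.1% Tween-20 buffer; beta-galactosidase complementation read by luminescence after 1 h at ambient temperature. Dopamine 57 uM final (EC100) as control.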
* = called active by the depositor; ? = inconclusive; · = not tested or not shown; & = joins results of further samples; [ ] = another dose, or the depositor's remark. This is a random part of the collection. About 1% of those tested had a hit in this group.

SMILES	Six1-Eya2 blk	PINK1 expr mod	TRPML1 ag	CtBP-E1A blk	TRPML1 inh	D2 ag
C=CCn1c(SCC(=O)c2c(N)n(C3CC3)c(=O)[nH]c2=O)nnc1-c1ccc(OC)cc1	-2	4.7%	1.6	-18	-3	-1.5
COc1ccc(NC(=O)CC2SC(N3CCOCC3)=NC2=O)cc1OC (stereo not drawn)	0	-0.1%	1.2	4	-15	1.8
CC1c2ccsc2CCN1S(=O)(=O)c1ccccc1 (stereo not drawn)	-1	1.5%	3.6	7	23	-2.8
CCOc1c(O)ccc(C2NC(=O)N(C)C(C)=C2C(=O)OC)c1[N+](=O)[O-] (stereo not drawn)	0	-0.8%	0.4	·	-20	-8.8
CC(C)Cc1ccc(CN2CCCC(NC(=O)c3nn(C)c(=O)c4ccccc34)C2)cc1 (stereo not drawn)	0	8.2%	1.5	-11	-8	-1.4
NS(=O)(=O)c1ccc(CCNC(=O)[C@@H]2CCCN2S(=O)(=O)c2ccccc2F)cc1	2	1.0%[38.3 µM]	-0.5	-2	-4	-2.9
CN(C)CCCN1C(=O)C2CCc3[nH]c4ccccc4c3C2C1=O (stereo not drawn)	5	1.4%	-0.5	-13	-2	-4.1
CCOC(=O)c1cnc(-c2cccc(OC)c2)[nH]c1=O	9	1.0%	-0.1	-2	11	-1.0
COC(=O)c1ccc(S(=O)(=O)N2CCCN(Cc3ccc(F)cc3)CC2)n1C	-5	-0.2%	2.1	-13	19	-3.0
CC(C)C(=O)Nc1cc(C(F)(F)F)ccc1N1CCOCC1	4	-0.2%[38.3 µM]	0.7	7	-8	3.7
Cc1c(/C(O)=C2/C(=O)C(=O)N(CCN3CCOCC3)C2c2ccccn2)cnn1-c1ccccc1 (stereo not drawn)	-13	1.2%	-0.2	-4	32	0.0
CCCC(=O)Nc1cc(-c2nn(C)c(=O)c3ccccc23)ccc1N1CCOCC1	-1	-1.9%	0.2	-5	0	-3.2
ClC(Cl)(c1nnnn1-c1ccccc1)c1nnnn1-c1ccccc1	12	-2.4%	9.0	13	1	0.0
N#C/C(=C\c1c(N2CCCCC2)nc2ccccn2c1=O)S(=O)(=O)c1ccccc1	?	-0.4%	2.1	-16	4	-3.2
Cc1cccc(NC(=O)c2ccc(NS(=O)(=O)c3cccc4cccnc34)cc2)c1	-7	-0.2%	-0.6	-3	5	1.1
O=C(O)c1cccc(-n2cccc2/C=C2\NC(=O)N(Cc3ccc(F)cc3)C2=O)c1	-21	2.7%	2.2	-12	25	-1.8
CC(C)NC(=O)N(C)C[C@H]1Oc2ccc(NC(=O)C3CC3)cc2C(=O)N([C@H](C)CO)C[C@@H]1C	-2	2.6%	-0.2	·	-29	-3.3
CCCCSCCCNC(=O)CN1C(=O)COc2ccc(S(=O)(=O)N3CCC(C)CC3)cc21	·	0.9%	1.4	·	9	·
CCOc1cc(NC(=S)Nc2cccc(C)c2)c(OCC)cc1NC(=O)CC(C)C	-7	60%[38.3 µM]	0.2	-8	-4	0.3
CC(C)N(Cc1nc(-c2ccc3c(c2)OCO3)no1)CC1CCC(=O)N1 (stereo not drawn)	1	3.7%	-0.4	5	-6	-2.1
CN1CCN(c2ccc(NC(=O)c3ccc(-c4ccc(Cl)cc4)o3)cc2)CC1	-29	2.9%	-0.1	?	-16	3.7
O=C1c2ccncc2C(=O)N1CNc1ccc(Cl)cc1	2	2.4%	0.3	1	8	2.0
CCOC(=O)C1CN(S(=O)(=O)c2ccc(C)cc2)C1	-3	-0.9%	-0.4	-1	3	-2.4
COc1ccc(CNC(=O)C/C(C)=N/NC(=O)C(c2ccccc2)c2ccccc2)cc1	-2	-1.4%	1.8	-2	8	-6.3
Cc1ccc(C)c(Nc2ncnc3c2cnn3-c2ccc(F)cc2)c1	·	7.0%	0.1	·	35	·
O=C(Nc1nc(-c2ccncc2)cs1)c1ccc(F)cc1	14	0.4%	0.3	-18	-2	-0.8
O=C(NCc1ccco1)c1ccc(Cl)s1	-4	2.3%	-0.3	-1	-2	3.0
CCOc1nc2cnccc2n(CC(=O)Nc2ccccc2C(=O)OC)c1=O	7	2.5%	0.8	·	-4	-2.9
O=C(NCc1nnnn1-c1ccc(F)c(F)c1)c1cc2ccccc2o1	-4	0.1%	-0.3	8	-10	-5.4
COc1ccc(NC(=S)Nc2ccccn2)cc1	0	1.4%	0.6	-5	7	-4.0
O=C(NCc1ccccn1)[C@@H]1CCCN1C(=O)[C@@H]1CCCN1C(=O)c1ccc(Cl)cc1	7	0.0%	-0.6	3	·	·
CCCC(c1nnnn1CS(=O)(=O)c1ccc(C)cc1)N1CCC(C(N)=O)CC1 (stereo not drawn)	0	0.2%	0.8	0	-1	4.2
CCOC(=O)CNC(=O)c1cn(C)c(=O)c2cc(OC)c(OC)cc12	-2	-1.5%	-0.2	5	-3	-2.2
COc1ccc(-c2nn(-c3ccccc3)cc2CNC(C)Cn2cncn2)c(F)c1 (stereo not drawn)	5	0.2%	-0.3	8	-5	-6.4
COC(=O)c1ccc(NC(=O)CSCc2ccc(C)cc2)cc1	-6	10%[38.3 µM]	1.9	-2	2	0.0
COc1ccc(/C=C/C(=O)Nc2ccccc2C(=O)N2CCCC2)cc1	-2	·	-0.1	-16	-5	0.8
Cc1cc(NC(=O)Nc2ccc(F)c(Cl)c2)no1	6	-4.1%[38.3 µM]	1.6	8	-18	2.4
CC(C)CSc1nnc(-c2ccccc2)c(-c2ccccc2)n1	·	8.2%	1.4	·	-9	·
COc1ccc2nc(SC)cc(C)c2c1	4	3.9%	-0.7	0	-7	-4.2
COc1cc(CNc2ncnc3c2ncn3[C@H]2CN(Cc3cccs3)C[C@@H](CO)O2)cc(OC)c1OC	0	1.6%	0.1	1	24	10
COc1ccccc1C(=O)Nc1ccnn1C1CCN(C(=O)C2CCOC2)CC1 (stereo not drawn)	0	-1.4%	0.0	0	0	-2.5
CCOC(=O)C1CCN(C(=O)Cn2ncc3c4ccccc4n(Cc4ccccc4F)c3c2=O)CC1	·	-0.3%	-0.1	·	7	·
O=C(CCCOc1ccc(Cl)cc1)NCCc1ccccc1	5	-0.6%	-0.8	12	6	9.3
Nc1ccc(C(=O)OCC(=O)NC2CCCc3ccccc32)cc1[N+](=O)[O-] (stereo not drawn)	?	7.1%	-0.9	10	2	-5.0
CC(C)c1ccc(NC(=O)C2CCCN2S(=O)(=O)c2ccc3nc(-c4ccccc4)[nH]c3c2)cc1 (stereo not drawn)	·	1.6%	1.4	·	2	·
CCCCOc1ccc(CN2C(=O)C(=O)c3cc(Br)cc(C)c32)cc1OC	·	0.6%	2.0	·	-1	·
CCCC(=O)NC(c1ccc(OC)cc1)c1c(O)ccc2ccccc12 (stereo not drawn)	23	15%	-0.1	-2	-4	-8.9
Cc1nc(NC(=O)c2ccco2)sc1-c1csc(Nc2ccc(Cl)cc2)n1	1	2.9%	0.9	·	-14	-3.1
COc1ccc(NC(=O)N(Cc2ccc3c(c2)OCO3)C2CC(=O)N(c3ccc(OC)cc3)C2=O)cc1 (stereo not drawn)	0	-4.3%[38.3 µM]	0.3	0	26	0.7
CCOc1ccc(C(=O)NC(C(=O)NCc2ccccn2)C(C)C)cc1 (stereo not drawn)	0	-3.1%	0.1	9	13	-6.3
Cc1ccc(NC(=O)c2ccco2)cc1C	0	0.4%	-1.2	3	7	-1.0
O=[N+]([O-])c1ccc(Cl)cc1P(=O)(O)c1cc(Cl)ccc1[N+](=O)[O-]	3	-2.4%	-0.5	5	-2	2.5
CCCCN(CCCC)S(=O)(=O)c1ccc(NC(=O)Cc2cccs2)cc1	3	0.7%[38.3 µM]	1.3	8	25	0.9
CCN(CC(=O)Nc1ccc2c(c1)OCCO2)C(=O)/C=C/c1cc(Br)ccc1OC	-11	0.0%	-1.1	-5	-14	-0.3
CC(C)c1ccc(-c2nnc3n(CCc4ccccc4)c(=O)c4ccccc4n23)cc1	·	0.4%	-0.4	·	-3	·
Cc1ccccc1NC(=O)CSc1nnc(-c2ccoc2C)n1CCc1ccccc1	-10	-1.7%	0.7	-1	5	-3.8
Cc1cccc(NCC(=O)N/N=C\c2cccn2C)c1	-8	-1.6%	1.7	-17	10	-0.7
COc1ccc(OC)c(CCNc2nc3ccccc3c3nc(-c4cccnc4)nn23)c1	·	0.9%	-0.3	·	1	·
O=C(NNc1c2ccccc2nc2ccccc12)C(O)c1ccccc1 (stereo not drawn)	-18	-0.3%	-0.4	·	40	-7.8
Cc1nn2c(=O)cc(COC(=O)c3ccc(NC(=O)c4cccc(Br)c4)cc3)nc2s1	·	1.5%	0.6	·	29	·

The last 3 records of the section before are carried over, then new ones follow:
SMILES	Six1-Eya2 blk	PINK1 expr mod	TRPML1 ag	CtBP-E1A blk	TRPML1 inh	D2 ag
COc1ccc(OC)c(CCNc2nc3ccccc3c3nc(-c4cccnc4)nn23)c1	·	0.9%	-0.3	·	1	·
O=C(NNc1c2ccccc2nc2ccccc12)C(O)c1ccccc1 (stereo not drawn)	-18	-0.3%	-0.4	·	40	-7.8
Cc1nn2c(=O)cc(COC(=O)c3ccc(NC(=O)c4cccc(Br)c4)cc3)nc2s1	·	1.5%	0.6	·	29	·
Cc1c(CCO)c(=O)n(C)n1C(=O)c1ccc(Cl)cc1	2	8.3%[38.3 µM]	-0.1	4	2	-3.6
COCCCNC(=O)CN1C(=O)c2c(c3ccccc3n2C)C1c1ccc(OC)cc1 (stereo not drawn)	·	0.3%	1.3	·	7	·
COc1ccccc1Cn1c(=S)[nH]c2cc(C(=O)NCCCN3CCOCC3)ccc2c1=O	0	1.6%	0.0	-1	-15	-6.4
CCCCSc1nc(C)cc(C)c1S(=O)(=O)c1ccccc1C	5	5.5%	0.3	10	23	-2.5
CN(C(=O)CN1C(=O)NC2(CCCc3ccccc32)C1=O)C1CCCCC1 (stereo not drawn)	-1	1.9%	0.7	5	19	-0.9
COCCn1c(SCCOc2ccccc2)nc2ccccc2c1=O	9	1.2%	3.1	2	5	-5.6
COc1ccc(-c2cc(=O)n(CCC#N)[nH]2)cc1	0	3.5%	0.2	23	-20	-4.7
COc1ccc(NC(=O)C2CCN(S(=O)(=O)c3cccc4nonc34)CC2)c(OC)c1	3	1.5%	-0.1	2	-14	2.2
COc1ccc(N(C)C(=O)CCS(=O)(=O)c2cccc3nsnc23)cc1	1	-1.0%&-0.3%	0.0&-0.1	1	5&0	4.4
COCCCNCCOc1ccc(C(C)(C)c2ccccc2)cc1	-1	-3.8%	0.2	7	1	-1.9
O=C(O)CN1C(=O)C(=O)N(Cc2ccccc2F)C1=O	-1	1.2%	-0.4	·	2	0.1
CC1CCn2c(nc3cc(C(=O)NCc4ccccc4)ccc32)C1 (stereo not drawn)	·	-0.5%	-1.0	·	-5	·

Assay outcomes deposited in PubChem BioAssay by National Center for Advancing Translational Sciences (NCATS).
